Screens deposited in PubChem BioAssay by National Center for Advancing Translational Sciences (NCATS).
Vaccinia Venus: qHTS for Stage-Specific Inhibitors of Vaccinia Orthopoxvirus: Venus Reporter Primary qHTS | Vaccinia virus Venus reporter expression, fluorescence | Potency, µM (series often up to 36.5 µM), for the others: top-dose activity change, negative = inhibition, usual class: inhibitors | AID 720580, 2013 | actives 0.46% (n = 330,000); active means well fitted inhibition curve with a large enough effect; inconclusive means small, poorly fitted or top-dose-only effect; inactive means no such curve, though single readings can be large or run the other way; tested in A549 cells; further: nearly all actives have a fitted effect of over 30% in size; inactives centre near -10
Vaccinia mCherry: qHTS for Stage-Specific Inhibitors of Vaccinia Orthopoxvirus: mCherry Reporter Primary qHTS; Potency, µM (top dose mostly 36.5 µM), for the others: top-dose activity change, negative = inhibition, most hits filed as inhibitors; AID 720579, 2013; actives 0.63% (n = 310,000); Vaccinia virus mCherry reporter infection, fluorescence; about a quarter of the inactives have no number; active = well fitted inhibition curve with a large enough effect; inconclusive = small, poorly fitted or top-dose-only effect; inactive = no such curve, though single readings can be large or run the other way; tested in A549 cells; further: nearly all actives have a fitted effect of over 35% in size; inactives centre near -10
* hit, by the source's call; i = inactive; ? = inconclusive; / = not tested or not shown; [ ] = another dose, or the depositor's remark. On the % scale 0 is the no-effect control and ±100 the full control effect; potency means the concentration at half of the fitted maximal effect. This is a random part of the collection; 0.86% or so of the library scored in one or more.

molecule | Vaccinia Venus | Vaccinia mCherry
CC1CN(S(=O)(=O)c2cccc(C(=O)OCCOc3ccccc3)c2)CC(C)O1 (stereo not drawn) | -14% | -13%
Clc1ccc(-c2cc3ncc4c(n3n2)-c2ccccc2OC4)cc1 | -6% | -11%
O=C(CN1C(=O)NC2(CCCC2)C1=O)Nc1nc2ccccc2[nH]1 | -6% | -6%
CCc1ccc(OCC(=O)NNC(=O)c2ccc(-n3cncn3)c([N+](=O)[O-])c2)cc1 | 0% | -13%
COc1ccccc1CN1CCN(Cc2ccco2)CC1 | 7% | -7%
N=c1c(S(=O)(=O)c2ccc(Cl)cc2)cc2c(=O)n3ccccc3nc2n1Cc1ccco1 | 2% | -12%
CC(=O)N(c1ccccc1)C1CC(C)N(C(=O)c2ccccc2)c2ccccc21 (stereo not drawn) | -22% | i
c1cc(N2CCOCC2)ccc1-c1ccc2nncn2c1 | -1% | 5%
CCOC(=O)Cc1csc(NC(=O)c2ccc3ccccc3n2)n1 | -5% | -16%
O=C(CNC(=O)c1cccs1)NCC(=O)OCc1c(Cl)cccc1Cl | -16% | i
COc1ccccc1N1CCN(Cc2cc(=O)oc3cc(C)cc(C)c23)CC1 | -8% | i
CC(Oc1ccccc1)C(=O)NNC(=O)c1ccccn1 (stereo not drawn) | ? | ?

(further entries)
molecule | Vaccinia Venus | Vaccinia mCherry
COc1cc(C(=O)NCc2ccc(S(N)(=O)=O)cc2)ccc1OCC(=O)Nc1cccc(C(F)(F)F)c1 | 6% | -13%
CCOc1ccccc1NC(=O)Cn1c(=O)n(C(C)C)c(=O)c2oc3ccccc3c21 | -26% | -9%
CO[C@@H]1CN(C)C(=O)c2cc(NC(=O)Nc3cc(F)ccc3F)ccc2OC[C@H](C)N(C(=O)c2ccccn2)C[C@@H]1C | -14% | -9%
COc1ccc(CNC(=O)Cc2coc3ccc(C)cc23)cc1 | -3% | -5%
CC1CCN(S(=O)(=O)c2ccc(C(=O)NC3CCS(=O)(=O)C3)cc2)CC1 (stereo not drawn) | -12% | ?
COc1ccc(O)c(-c2[nH]ncc2C(=O)c2ccccc2C)c1 | -22% | /
O=C1CN=C(c2cc([N+](=O)[O-])ccc2Cl)c2cc([N+](=O)[O-])ccc2N1 | -14%[7.34 µM] | ?
O=C1/C(=C/c2ccccc2)NC(=S)N1C(c1ccccc1)c1ccccc1 | ? | -12%[1.46 µM]
C=CCSc1nnc(-c2c[nH]c3ccccc23)n1CC | -8% | i
O=c1c2ccccc2nc2sc3ccccc3n12 | -10% | -6%
CN1CCN(C(=O)NC2CCCN2S(=O)(=O)c2ccc(Cl)cc2)CC1 (stereo not drawn) | 0% | 5%
CCc1cc(=O)[nH]c(SCC(=O)NCc2ccc3c(c2)OCO3)n1 | -19% | -7%

(list continues)
molecule | Vaccinia Venus | Vaccinia mCherry
CC(CC(=O)O)CC(=O)Nc1ccc(Br)cc1 (stereo not drawn) | -2%[7.34 µM] | -7%[7.34 µM]
CCCCn1nnnc1C(c1ccccc1)N1CCc2ccccc2C1 (stereo not drawn) | -2% | -5%
Cc1nc2scc(C)n2c(=O)c1S(=O)(=O)N1CCN(c2ccccc2F)CC1 | -7%[7.34 µM] | -15%[7.34 µM]
C/C(NCCN1CCOCC1)=C(\C#N)C(N)=O | -11% | /
O=C(NCC1Cc2cccc(-c3cccnc3)c2O1)c1cc(-c2ccccc2)n[nH]1 (stereo not drawn) | -16% | i
COC(=O)C(O)(CC(=O)Nc1ccc(Cl)cc1Cl)C(F)(F)F (stereo not drawn) | -4% | -14%
CCN1C[C@@H]2[C@@H]3C(=O)N(C)C(=O)[C@@H]3[C@](Cc3ccccc3)(C1=O)N2C(=O)c1ccc(C(C)(C)C)cc1 | -5% | -14%
CN(C(=O)CSc1nnc(C2CC2)n1C1CC1)C1(C#N)CCCCC1 | -11% | -3%
COc1ccc(C(=O)NNC(=O)CSc2nc(C(C)C)nc3ccccc23)cc1 | -15% | -12%
CCCOc1ccc(C2C(=O)N(C3CCCCCC3)CC(=O)N2Cc2ccc(OC)cc2)cc1OC (stereo not drawn) | -5% | -14%
CC(C)N(C(=O)COC(=O)Cn1cnc2ccccc21)c1ccccc1 | -4% | i
O=C1c2cccnc2C(=O)N1Cc1ccccc1 | -3% | i

Continuation.
molecule | Vaccinia Venus | Vaccinia mCherry
Cc1cc(C)c2c(n1)nn1c(C)c(CCC(=O)NCc3ccc(Cl)cc3)c(C)nc21 | -1% | 10%
COC(=O)C1=NNC2C(=O)N(C3CCCCC3)C(=O)C12 (stereo not drawn) | -3% | -16%
O=C1COc2ccc(C(=O)COC(=O)c3ncc(Cl)c(Cl)c3Cl)cc2N1 | -5% | -7%
Cc1cnc(CNC(=O)CC2C(=O)NCCN2Cc2cccc(F)c2F)cn1 (stereo not drawn) | -3% | -13%
CC(C)CC(=O)n1sc(NC(=O)c2ccccc2)nc1=O | -4% | -7%
C[C@@H]1Cn2cnc(C(=O)N[C@@H](Cc3c[nH]c4ccccc34)C(=O)OC(C)(C)C)c2C(=O)N1 | -18% | i
COC(=O)C1(C)NC(c2ccccc2C)C2C(=O)N(c3ccc(F)cc3)C(=O)C21 (stereo not drawn) | -8% | i
CC(=O)NCCCC(=O)NNC1CC(=O)N(c2cccc(Cl)c2)C1=O (stereo not drawn) | -2% | i
Fc1ccc(CSc2ccc(-c3ccc4c(c3)OCO4)nn2)cc1 | -24% | -25%
O=C(Nc1ccc2c(c1)OCCO2)N1CCN(Cc2ccccc2)CC1 | -12% | -8%
COc1cc(C2(C#N)CCN(C)CC2)cc(OC)c1OC | -6% | -14%
CCOC(=O)c1c(C)oc2nc(C)nc(N3CCN(c4ccccc4)CC3)c12 | -27% | -25%

Remaining list, next part.
molecule | Vaccinia Venus | Vaccinia mCherry
Cc1nc2sccn2c(=O)c1S(=O)(=O)Nc1ccc(N2CCOCC2)cc1 | -1% | -10%
Cc1ccc(C)c(N2CCN(C(=O)CN(C)S(=O)(=O)c3ccc4c(c3)CCC(=O)N4)CC2)c1 | -14% | ?
CC1(C)C(=O)Nc2ccccc2N1C(=O)COc1cccnc1[N+](=O)[O-] | -10% | -4%
CC(C)(C)C(=O)Nc1sc2c(c1C#N)CCCCC2 | -24% | -8%
N#CCCn1ncc2ccccc21 | -20% | -12%
FC(F)Sc1ccc(-n2cc(-c3ccc(Cl)cc3)[n+]3c2CCC3)cc1 | -3% | i
Oc1ccc(/C=N/Nc2cc(N3CCCC3)nc(N3CCCC3)n2)cc1O | -15% | -24%
CCCSCCCNC(=O)Cn1cc2c(n1)CCCCC2 | 2% | -14%
Cc1cccc(NCC(=O)NNC(=S)Nc2ccccc2)c1 | -5% | i
CCCCc1n[nH]c2c1/C(=N/O)CC(c1ccccc1)C2 (stereo not drawn) | -23% | /
Cc1ccc(NC(=O)/C=C/c2cccc([N+](=O)[O-])c2)nc1 | -3% | i
CC(C)c1ccc(CNc2nc(NCC3CC3)nc3ccsc23)cc1 | -27% | 2%

Later entries:
molecule | Vaccinia Venus | Vaccinia mCherry
Cc1cnn(Cc2ccccc2)c1N | -5% | -9%
Cc1cc(NC(=O)CSc2nnc(Nc3ccccc3C)s2)no1 | 5% | 3%
Nc1ccc(S(=O)(=O)N2CC3CC(C2)c2cccc(=O)n2C3)cc1 (stereo not drawn) | 7% | i
Cc1cc(C(=O)OCC(=O)Nc2cc(S(=O)(=O)N(C)C)ccc2Cl)c2ccccc2n1 | 6% | -17%
Cc1cn(CC(=O)NCCN2CCOCC2)c(=O)[nH]c1=O | -17% | -15%
Cn1c(=O)c2c(ncn2CC(=O)Nc2cc(Cl)cc(Cl)c2)n(C)c1=O | -10% | -19%
Nc1ncnc2c1ncn2[C@H]1O[C@@H](CSCC[C@@H](N)C(=O)O)[C@H](O)[C@@H]1O | -7% | -16%
Cc1nn(C)cc1CNC(=O)c1cnn2c(C(F)F)cc(C3CC3)nc12 | -16% | /
Cc1ccc(-c2cc(=O)c3ccccc3[nH]2)cc1 | ? | i
O=C(ON=C1CCSCC1)c1ccccc1 | -14% | i[1.46 µM]
COc1ccc(Cl)cc1C(=O)NCC(c1ccc(N(C)C)cc1)N1CCCC1 (stereo not drawn) | -9% | -14%
O=c1[nH]c2ccccc2c(O)c1SCCO | -22% | i

(continued)
molecule | Vaccinia Venus | Vaccinia mCherry
O=C(NC(=S)N1CCN(Cc2ccccc2)CC1)c1cccnc1 | 1% | i
COc1ccc(C2CC(c3ccccc3)=NN2C(=O)COC(=O)C2(C)CC2(Cl)Cl)cc1 (stereo not drawn) | -10% | -18%
NS(=O)(=O)c1ccc(NC(=O)c2ccc3c(c2)OCO3)cc1 | 0% | -3%
Cc1ccccc1-c1nc(CN2CCN(C(=O)c3ccco3)CC2)c(C)o1 | -7% | -15%
CCc1nc2ccc(C(=O)NCCCN3CCCC3=O)cn2c1N(C)CCC(C)C | -6% | i
CCCCN(C(=O)C1CC(=O)N(c2ccc3c(c2)OCCO3)C1)c1c(N)n(CCCC)c(=O)[nH]c1=O (stereo not drawn) | -4% | -10%
COc1ccc(CCNC(=O)CN(C)S(=O)(=O)c2cccs2)cc1OC | ? | /
CCOc1ccc(OCCC(=O)OCC(=O)Nc2ccc(C)c(S(=O)(=O)N3CCCCC3)c2)cc1 | 2% | -13%
COC(=O)c1ccc(Cn2c(C)c(C(=O)NCc3ccc([N+](=O)[O-])cc3)sc2=O)o1 | -7% | 0%
COc1cccc(-n2nc(-c3ccnn3-c3ccc(F)cc3)c(=O)n(C)c2=O)c1 | -12% | /
O=C(Cn1sc2ccccc2c1=O)Nc1ccc(F)cc1 | -11% | ?
O=C(CCl)Nc1cccn2ncnc12 | 7.9µM* | /

Reprinted at random: 3 compounds from above
molecule | Vaccinia Venus | Vaccinia mCherry
Cc1ccccc1-c1nc(CN2CCN(C(=O)c3ccco3)CC2)c(C)o1 | -7% | -15%
COc1ccc(CCNC(=O)CN(C)S(=O)(=O)c2cccs2)cc1OC | ? | /
COC(=O)c1ccc(Cn2c(C)c(C(=O)NCc3ccc([N+](=O)[O-])cc3)sc2=O)o1 | -7% | 0%

Next results.
molecule | Vaccinia Venus | Vaccinia mCherry
C=CCNC(=O)C1CCN(c2ccc(S(=O)(=O)N3CCOCC3)cc2[N+](=O)[O-])CC1 | -5% | i
COC(=O)c1ccc(-c2ccc(/C=N/N3C(=O)C4C5C=CC(C6CC56)C4C3=O)o2)cc1 (stereo not drawn) | -8% | -16%
O=C(NCc1ccccc1Cl)c1csc([C@@H]2O[C@H](CO)[C@H](O)[C@H](O)[C@H]2O)n1 | -9% | -11%
CC(Oc1ccc(Br)cc1)C(=O)Nc1nnc(C2CC2)s1 (stereo not drawn) | -2% | -5%
Cc1ccc(CNC(=O)CN2CCN(Cc3ccc(Cl)cc3)C2=O)cc1 | ? | /
CC(=O)c1ccc(S(=O)(=O)N2CCN(CC(=O)NC(=O)NC3CCCCC3)CC2)cc1 | -15% | -13%
CC(=O)n1cc(C2C(=O)CCCC2=O)c2ccccc21 | -13% | /
C[C@H]1CN([C@@H](C)CO)S(=O)(=O)c2ccc(Br)cc2O[C@@H]1CN(C)C(=O)CCN1CCCCC1 | -24% | -19%
CO/N=C(\c1nonc1N)N1CCN(c2ccc(Cl)cc2[N+](=O)[O-])CC1 | -19% | -10%
CC(=O)Nc1cccc(C(=O)Nc2cc(C(F)(F)F)ccc2-n2cncn2)c1 | -7% | ?
COc1ccc2c(c1)-c1nc(-n3ncc(C(=O)NCc4cccnc4)c3C3CC3)ncc1CC2 | -18% | ?
Nc1nccc(/C=C/c2ccc(Cl)cc2)n1 | ? | -8%

(continued)
molecule | Vaccinia Venus | Vaccinia mCherry
O=C(NCCc1ccccc1)/C(=C\c1ccc([N+](=O)[O-])cc1)NC(=O)c1ccccc1 | -15% | -19%
O=C1NCC(c2ccccc2)C1C(=O)N/N=C\c1ccc(-c2ccc(Cl)c(Cl)c2)o1 (stereo not drawn) | -23% | /
CCc1cccc(NC(=O)Cc2nc(-c3ccc(OC)cc3)no2)c1 | -2% | -12%
Cc1onc(-c2ccccc2)c1C(=O)OCC(=O)N1CCN(c2ccccc2)CC1 | -1% | -8%
Cc1cccc(-n2c(=O)c3ccccc3n(Cc3ccc(F)cc3)c2=O)c1 | 1% | -4%
CN(Cc1ccncn1)C(=O)CC1C(=O)NCCN1Cc1cccc(Oc2ccccc2)c1 (stereo not drawn) | -4% | -28%
CC1CCCN(c2csc3ccccc3c2=O)C1 (stereo not drawn) | -7% | -15%
COc1ccc(NC(=S)NC(NC(=O)c2cccc(C)c2)C(Cl)(Cl)Cl)c([N+](=O)[O-])c1 (stereo not drawn) | ? | ?
c1ccc(C2OCCN3CCCCC23)cc1 (stereo not drawn) | -3% | -14%
CC(C)CNC(CC(=O)Nc1cccc([N+](=O)[O-])c1)C(=O)O (stereo not drawn) | -14% | i
C=CCNC(=S)N1CCN(c2ccccc2Cl)CC1 | -11% | i
COc1ccc(N2CCN(C(=O)c3ccc(S(=O)(=O)N4CCCCCC4)cc3)CC2)cc1 | -13% | -6%
O=C(NC1CCCCC1)c1ccccc1NC(=S)NC(=O)C1CCC1 | -5% | i
O=C(COc1ccccc1Cl)c1ccc[nH]1 | 0% | -6%
